From PubChem BioAssay
NOMO-1 viab: STK33 inhibitor candidate reducing NOMO-1 cell viability; NOMO-1 AML viability, CellTiter-Glo luminescence, 72 h; inhibition, % (no concentration beside the values); 37,000 tested, 7.5% active; AID 2330;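 active = most replicates above 80%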;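 also: wells of about 30 µL received 25 nL stock; 0% = median of vehicle wells and 100% = reference inhibitor level; the first replicate is given; inactives centre near 10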
An asterisk follows results filed as active. This is a subset, so the mix of outcomes need not match the whole.

Start of the data: the first 7 records, to show the layout:
SMILES	NOMO-1 viab
COc1ccc(OC)c(NC(=O)COc2ccc(C(=O)Nc3cccc(C)c3C)cc2)c1	20
CCc1cc(-c2n[nH]c(C)c2-c2nc(C)cs2)c(O)cc1OCc1ccc([N+](=O)[O-])cc1	109*
Cc1cccc(N(CC(=O)Nc2cccc([N+](=O)[O-])c2)S(C)(=O)=O)c1C	-2
Cc1onc(-c2c(F)cccc2Cl)c1C(=O)N[C@@H]1C(=O)N2C(C(=O)O)C(C)(C)S[C@H]12 (stereo partly specified)	31
C[C@@H]1CCCCO[C@H](CN(C)Cc2ccc(Cl)c(Cl)c2)[C@@H](C)CN([C@H](C)CO)C(=O)c2cc(NC(=O)Nc3ccc(F)cc3)ccc2O1	126*
CC(C)(C)C(=O)OC[C@H]1O[C@@H](n2cnc3c(N)ncnc32)C[C@@H]1OC(=O)C(C)(C)C	0
Cn1c(SCC(=O)Nc2ccc(F)c(Cl)c2)nnc1-c1ccncc1	6

Results, from the start:
SMILES	NOMO-1 viab
COc1ccc(OC)c(NC(=O)COc2ccc(C(=O)Nc3cccc(C)c3C)cc2)c1	20
CCc1cc(-c2n[nH]c(C)c2-c2nc(C)cs2)c(O)cc1OCc1ccc([N+](=O)[O-])cc1	109*
Cc1cccc(N(CC(=O)Nc2cccc([N+](=O)[O-])c2)S(C)(=O)=O)c1C	-2
Cc1onc(-c2c(F)cccc2Cl)c1C(=O)N[C@@H]1C(=O)N2C(C(=O)O)C(C)(C)S[C@H]12 (stereo partly specified)	31
C[C@@H]1CCCCO[C@H](CN(C)Cc2ccc(Cl)c(Cl)c2)[C@@H](C)CN([C@H](C)CO)C(=O)c2cc(NC(=O)Nc3ccc(F)cc3)ccc2O1	126*
CC(C)(C)C(=O)OC[C@H]1O[C@@H](n2cnc3c(N)ncnc32)C[C@@H]1OC(=O)C(C)(C)C	0
Cn1c(SCC(=O)Nc2ccc(F)c(Cl)c2)nnc1-c1ccncc1	6
CC(C)S(=O)(=O)c1cnc(N2CCOCC2)nc1N	-3
CCCCCCCC/C=C\C/C=C\C/C=C\CCCC(=O)O	-14
C[C@H]1CN([C@@H](C)CO)C(=O)Cc2cc(NC(=O)Cn3cnnn3)ccc2O[C@H]1CN(C)C	-8
COc1c(O)cc([C@@H]2Oc3cc(O)cc(O)c3C[C@@H]2O)cc1O	7
Cc1sc2ncnc(SCC(=O)Nc3cccc(C(F)(F)F)c3)c2c1C	-3
Cc1nc(-c2ccncc2)nc(NCCNc2cc(C(F)(F)F)ccn2)c1Cl	9
C[C@@H]1CN([C@H](C)CO)C(=O)c2cc(NC(=O)Nc3cccc4ccccc34)ccc2O[C@@H]1CN(C)S(=O)(=O)c1ccc(F)cc1	12
COc1ccc(NC(=O)CSc2nc3c(cc2C#N)C(=O)CCC3)cc1	-8
COc1c(O)cc2c(=O)oc3c(OC)c(O[C@@H]4OC[C@@H](O)[C@H](O)[C@H]4O)cc4c(=O)oc1c2c34	-1
COc1ccc(NC(=O)N(C)C[C@@H]2Oc3c(NC(=O)c4ccc(-c5nccs5)cc4)cccc3C(=O)N([C@@H](C)CO)C[C@H]2C)cc1	-23
C[C@@H]1CN([C@@H](C)CO)C(=O)c2cccc(NC(=O)Nc3ccc(F)cc3)c2O[C@H]1CN(C)S(C)(=O)=O	-9
O=C(O)CSc1c[nH]c2ccccc12	27
[N-]=C=N[n+]1ccc2ccccc2c1C(=O)c1ccc(Cl)cc1	52
Cc1noc(C)c1NC(=O)Nc1ccc2c(c1)CC(=O)N([C@@H](C)CO)C[C@H](C)[C@H](CN(C)C(=O)Nc1c(C)noc1C)O2	-11
C[C@H](CO)N1C[C@H](C)[C@H](CN(C)CC2CCCCC2)Oc2ccc(NS(=O)(=O)c3cccs3)cc2C1=O	-4
C[C@H]1CN([C@@H](C)CO)C(=O)Cc2cc(NC(=O)Cn3cnnn3)ccc2O[C@H]1CN(C)Cc1ccc(C(F)(F)F)cc1	4
C[C@H]1CN([C@@H](C)CO)C(=O)c2cccc(NC(=O)C3CCCCC3)c2O[C@@H]1CN(C)Cc1ccc(C(=O)O)cc1	14
C[C@@H]1CCCCO[C@H](CN(C)C(=O)Nc2cccc3ccccc23)[C@@H](C)CN([C@H](C)CO)C(=O)c2cc(NS(C)(=O)=O)ccc2O1	11
C[C@H]1CN([C@@H](C)CO)C(=O)Cc2cc(NC(=O)C3CCCCC3)ccc2O[C@H]1CN(C)Cc1ccc(Oc2ccccc2)cc1	27
CC(C)NC(=O)N(C)C[C@@H]1Oc2ccc(NC(=O)C3CC3)cc2CC(=O)N([C@@H](C)CO)C[C@@H]1C	10
COC(=O)c1ccccc1NC(=O)NCCc1ccccc1OC	30
Cc1cc2nn(-c3ccc(F)cc3)nc2cc1NC(=O)COc1ccc(Br)cc1	0
C[C@@H]1CN([C@H](C)CO)C(=O)Cc2cc(NC(=O)Nc3cccc4ccccc34)ccc2O[C@@H]1CN(C)C(=O)Nc1ccc2c(c1)OCO2	12
C[C@@H]1CN([C@@H](C)CO)C(=O)Cc2cc(NC(=O)c3ccncc3)ccc2O[C@@H]1CN(C)S(=O)(=O)c1ccccc1	28
COc1ccc(S(=O)(=O)N(C)C[C@H]2Oc3c(NC(=O)c4cc(C)nn4C)cccc3C(=O)N([C@H](C)CO)C[C@@H]2C)cc1	2
Cc1sc2ncn(CC(=O)Nc3ccccc3C(F)(F)F)c(=O)c2c1C	7
Cc1noc(C)c1NC(=O)Nc1ccc2c(c1)CC(=O)N([C@H](C)CO)C[C@@H](C)[C@H](CN(C)S(C)(=O)=O)O2	-32
COc1cc(NC(=O)COc2ccccc2Br)c(OC)cc1Cl	30
CC(Oc1ccccc1)C(=O)Nc1c[nH]c(=O)[nH]c1=O (stereo unspecified)	13
CC1=CC(c2ccoc2)c2c(oc(N)c(C#N)c2=O)S1 (stereo unspecified)	26
O=c1[nH]c(CSc2nnc(-c3ccccc3)n2C2CCCCC2)nc2ccccc12	6
C[C@@H]1CN([C@H](C)CO)C(=O)c2cc(NS(=O)(=O)c3ccccc3)ccc2O[C@H]1CN(C)Cc1ccc2c(c1)OCO2	-2
Cc1ccc(S(=O)(=O)N(C)C[C@@H]2Oc3ccc(NC(=O)Nc4ccc5c(c4)OCO5)cc3C(=O)N([C@@H](C)CO)C[C@@H]2C)cc1	46
C[C@H]1CN([C@@H](C)CO)C(=O)Cc2cc(NS(=O)(=O)c3cccs3)ccc2O[C@H]1CN(C)S(=O)(=O)c1cccs1	-3
C[C@H]1CN([C@@H](C)CO)C(=O)c2cccc(NC(=O)Nc3ccccc3)c2O[C@H]1CN(C)S(C)(=O)=O	12
C[C@H](CO)N1C[C@H](C)[C@H](CN(C)S(=O)(=O)c2cccs2)Oc2ccc(NS(=O)(=O)c3cn(C)cn3)cc2CC1=O	-3
C[C@@H]1CN([C@H](C)CO)C(=O)c2cccc(NC(=O)C3CCOCC3)c2O[C@H]1CN(C)CC1CCCCC1	40
C[C@@H]1CN([C@H](C)CO)C(=O)c2cc(NC(=O)Nc3ccc(C(F)(F)F)cc3)ccc2O[C@H]1CN(C)C(=O)Nc1cccc2ccccc12	117*
Cc1c(NC(=O)C(C)N2C(=O)c3ccccc3C2=O)c(=O)n(-c2ccccc2)n1C (stereo unspecified)	6
O=C(O)c1cc(=O)c2c(Cl)cc(Cl)cc2[nH]1	6
CC1=CC(C)C2(COC(=O)Nc3ccccc3)COC(c3cccnc3)C1C2C (stereo unspecified)	105*
Cc1nnc2sc(-c3cccc(NC(=O)C(C)Oc4ccc(Cl)cc4Cl)c3)nn12 (stereo unspecified)	30
C[C@H]1CN([C@@H](C)CO)C(=O)c2cccc(N(C)C)c2O[C@@H]1CN(C)Cc1ccc(C(=O)O)cc1	-16
Cc1noc(C)c1NC(=O)Nc1cccc2c1O[C@H](CN(C)C(=O)Nc1ccccc1)[C@@H](C)CN([C@@H](C)CO)C2=O	0
C[C@H](CO)N1C[C@H](C)[C@H](CN(C)Cc2ccc(C(=O)O)cc2)Oc2ccc(NC(=O)Nc3ccc4c(c3)OCO4)cc2CC1=O	-2
C[C@H]1CN([C@@H](C)CO)C(=O)c2cccc(NS(C)(=O)=O)c2O[C@H]1CN(C)Cc1ccc(Oc2ccccc2)cc1	-2
C[C@@H]1CCCCO[C@H](CN(C)S(=O)(=O)c2cccs2)[C@@H](C)CN([C@H](C)CO)C(=O)c2cc(NC(=O)Nc3ccccc3)ccc2O1	12
CCN(CCS(=O)(=O)c1ccc(Cl)cc1)C(=O)Nc1ccc(Cl)cc1	14
C[C@@H]1CN([C@H](C)CO)C(=O)Cc2cc(NS(=O)(=O)c3ccc(Cl)cc3)ccc2O[C@H]1CN(C)Cc1ccc(-c2ccccc2)cc1	66
C[C@H](CO)N1C[C@H](C)[C@@H](CN(C)S(=O)(=O)c2cn(C)cn2)Oc2ccc(NS(C)(=O)=O)cc2C1=O	-21
COc1ccc(S(=O)(=O)N(C)C[C@@H]2Oc3ccc(NS(=O)(=O)c4cccs4)cc3C(=O)N([C@H](C)CO)C[C@@H]2C)cc1	34
Cn1nc(CC(=O)Nc2ccc(Oc3ccccc3)cc2)c2ccccc2c1=O	70
C[C@@H]1CN([C@@H](C)CO)C(=O)Cc2cc(N(C)C)ccc2O[C@@H]1CN(C)Cc1ccc(Cl)c(Cl)c1	127*
More records
SMILES	NOMO-1 viab
Cc1ccc(-c2nc3ccccc3s2)cc1NC(=O)COc1ccc(Br)cc1	50
C[C@@H]1CN([C@@H](C)CO)C(=O)c2cc(NC(=O)Nc3ccc4c(c3)OCO4)ccc2O[C@H]1CN(C)Cc1ccc(Oc2ccccc2)cc1	26
COc1ccc(NC(=O)N(C)C[C@@H]2Oc3ccc(NC(=O)Nc4ccc(C(F)(F)F)cc4)cc3C(=O)N([C@@H](C)CO)C[C@H]2C)cc1	35
Cc1cccc(C)c1OCC(=O)Nc1cccc(C(=O)O)c1C	9
COc1ccc(S(=O)(=O)Nc2cccc3c2O[C@@H](CN(C)Cc2ccc(C(=O)O)cc2)[C@@H](C)CN([C@@H](C)CO)C3=O)cc1	17
C[C@H](CO)N1C[C@H](C)[C@@H](CN(C)S(C)(=O)=O)Oc2ccc(NS(=O)(=O)c3cn(C)cn3)cc2C1=O	-1
Nc1ccc(OCC(O)C[n+]2ccccc2)cc1 (stereo unspecified)	2
C[C@@H]1CN([C@H](C)CO)C(=O)c2cccc(NS(=O)(=O)c3ccccc3)c2O[C@H]1CN(C)C	-23
CSc1ccc(C(Nc2cc(C)ccn2)c2ccc3ccc(C)nc3c2O)cc1 (stereo unspecified)	40
C[C@@H]1CN([C@H](C)CO)C(=O)Cc2cc(NS(=O)(=O)c3ccc(Cl)cc3)ccc2O[C@H]1CN(C)S(=O)(=O)c1cn(C)cn1	-5
Cc1ccc(S(=O)(=O)Nc2ccc3c(c2)C(=O)N([C@H](C)CO)C[C@@H](C)[C@@H](CN(C)Cc2ccc(-c4ccccc4)cc2)O3)cc1	122*
C[C@@H]1CN([C@@H](C)CO)C(=O)c2cc(NC(=O)Nc3ccc(F)cc3)ccc2O[C@H]1CN(C)C	6
CCC(Sc1nc(C)cc(=O)[nH]1)C(=O)Nc1ccccc1C#N (stereo unspecified)	21
O=C(CCn1nc(-c2ccccc2)c2ccccc2c1=O)Nc1cccc(Br)c1	-8
C[C@@H]1CN([C@H](C)CO)C(=O)Cc2cc(NC(=O)C3CCCCC3)ccc2O[C@@H]1CN(C)S(=O)(=O)c1cccs1	-9
COc1ccc(NC(=O)Nc2ccc3c(c2)C(=O)N([C@H](C)CO)C[C@H](C)[C@H](CN(C)S(=O)(=O)c2ccccc2)OCCCC[C@@H](C)O3)cc1	-3
Cc1noc(C)c1NC(=O)N(C)C[C@H]1Oc2c(NS(=O)(=O)c3ccc(Cl)cc3)cccc2C(=O)N([C@@H](C)CO)C[C@H]1C	13
COc1ccc(F)cc1S(=O)(=O)n1cnc2cc(C)c(C)cc21	48
CC1(C)Cc2c(sc3ncn4nc(-c5ccccc5)nc4c23)C(C)(C)N1	117*
COC(=O)c1ccc(OC(=O)CS(=O)c2ccc(C(F)(F)F)cc2[N+](=O)[O-])cc1 (stereo unspecified)	109*
C[C@H]1CN([C@@H](C)CO)C(=O)Cc2cc(NC(=O)Cc3ccccc3)ccc2O[C@@H]1CN(C)S(=O)(=O)c1cn(C)cn1	9
Cc1cc(C)cc(N(CC(=O)Nc2c(C)cc(C)cc2C)S(C)(=O)=O)c1	20
C[C@H]1CN([C@@H](C)CO)C(=O)c2cccc(NC(=O)C3CC3)c2O[C@@H]1CN(C)C(=O)Nc1ccccc1	-3
Cc1noc(C)c1S(=O)(=O)Nc1ccc2c(c1)C(=O)N([C@H](C)CO)C[C@H](C)[C@@H](CN(C)C(=O)CCC(F)(F)F)OCCCC[C@@H](C)O2	18
COc1ccc(NC(=O)Nc2ccc3c(c2)CC(=O)N([C@H](C)CO)C[C@H](C)[C@H](CN(C)C(=O)Nc2ccc(C(F)(F)F)cc2)O3)cc1	29
C[C@H](CO)N1C[C@H](C)[C@H](CN(C)S(=O)(=O)c2ccc(Cl)cc2)Oc2ccc(NC(=O)Nc3cccc4ccccc34)cc2CC1=O	72
COc1ccc(-c2nnc(Nc3cccc(C(F)(F)F)c3)c3ccccc23)cc1	116*
C[C@H](CO)N1C[C@H](C)[C@H](CN(C)Cc2ccc(C(=O)O)cc2)Oc2ccc(NC(=O)C3CC3)cc2C1=O	3
COc1ccc(NC(=O)NCc2ccc(C(=O)O)cc2)c(OC)c1	8
C[C@@H]1CN([C@@H](C)CO)C(=O)c2cc(NC(=O)C3CC3)ccc2O[C@@H]1CN(C)C(=O)NC1CCCCC1	6
Nc1nc(SCC(=O)Nc2ccccc2C(F)(F)F)n[nH]1	-2

In the list so far, three contain a nitro group on carbon:
SMILES	NOMO-1 viab
CCc1cc(-c2n[nH]c(C)c2-c2nc(C)cs2)c(O)cc1OCc1ccc([N+](=O)[O-])cc1	109*
Cc1cccc(N(CC(=O)Nc2cccc([N+](=O)[O-])c2)S(C)(=O)=O)c1C	-2
COC(=O)c1ccc(OC(=O)CS(=O)c2ccc(C(F)(F)F)cc2[N+](=O)[O-])cc1 (stereo unspecified)	109*
